# Bioassay records deposited in PubChem BioAssay by several laboratories.
# MT1-MMP act inh = blockers of MT1-MMP proenzyme processing, primary screen, HT1080 RFP-PRO-GFP cells, GFP/RFP fluorescence; Matrix metalloproteinase-14 (Homo sapiens), P50281; GFP/RFP ratio fluorescence, overnight; percent of plate control window, DMSO zero; GFP/RFP ratio change, % at 20 µM; 0.061% of 360,000 active; AID 651647, 2012;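 active = GFP/RFP ratio change of at least 30% with cell ATP level not reduced by more than half and red fluorescence within 50% of control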; note: strong numbers were not always called active
#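 Compound: 20 µM single dose, 1% DMSO / System: HT1080 RFP-PRO-GFP cells / Controls: DMSO and RFP-L50D-GFP cell wells / Read-out basis: GFP/RFP fluorescence ratio / Schedule: overnight compound exposure at 37 °C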
# CSC inhib = cancer stem cell viability inhibitors, primary screen, luminescence. inhibition, % at 7.5 µM. cancer stem cell-like cells viability. 1.1% of 300,000 active. AID 2717, 2010;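 active = mean at 75% or more and at least half the replicates too; inconclusive = mean and replicates disagree; tested in HMLE shEcad cells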;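 note: 0% = median of negative and 100% = median of positive control wells; the first replicate is given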
# Rce1 inhib = yeast Rce1p protease inhibitors, primary screen, biochemical, fluorescence, cell-free homogeneous. CAAX prenyl protease 2 (Saccharomyces cerevisiae (strain ATCC 204508 / S288c)), Q03530. yeast membranes, quenched prenylated peptide cleavage fluorescence. calls only. 0.27% of 290,000 active;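 active = fall in fluorescence gain of 50% or more versus controls, with final raw signal at or below 3038400; inconclusive = same 50% fall but final raw signal above 3038400; inactive = fall in fluorescence gain under 50%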;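 note: plate controls were neutral control wells for no effect and wells lacking membranes for full effect; tested at 10 µM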
# Target sequence (Q03530 whole entry, looked up): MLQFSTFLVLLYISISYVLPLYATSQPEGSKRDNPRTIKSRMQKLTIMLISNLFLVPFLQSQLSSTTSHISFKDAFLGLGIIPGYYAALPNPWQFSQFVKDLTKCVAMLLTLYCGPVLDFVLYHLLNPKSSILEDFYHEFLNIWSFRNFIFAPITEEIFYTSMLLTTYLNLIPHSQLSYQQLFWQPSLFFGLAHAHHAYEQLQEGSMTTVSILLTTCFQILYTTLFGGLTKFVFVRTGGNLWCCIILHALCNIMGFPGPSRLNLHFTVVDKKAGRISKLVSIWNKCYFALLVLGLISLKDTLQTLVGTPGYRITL
# Yeast UUG start = modulators of yeast start codon fidelity, primary screen, whole organism, S. cerevisiae, single point, plate reader. S. cerevisiae UUG-firefly luciferase reporter, luminescence/redox ratio. activity score, % at 18.7 µM. 0.13% of 350,000 active. AID 602363, 2012;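 active = replicate mean at a twofold rise or more, about +100% in these data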;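 note: firefly luciferase made from a UUG start codon reports start codon fidelity; reporter light over untreated wells divided by growth signal over untreated wells; some hits fall short of that in this replicate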
# Env fusion inh = inhibitors of HIV-1 Env-driven cell-cell fusion, primary screen, HeLa-JRFL effector, CEM21 target cells, luciferase | inhibition, % at 12.3 µM | 1.1% of 360,000 active | AID 651610, 2012;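 active = mean replicate inhibition score of at least 50 and every replicate individually at or above 50; inconclusive = only one of the two criteria met; inactive = mean below 50 and not all replicates reaching 50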;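 note: 0% = plate neutral controls and 100% = maraviroc near 300 nM; one replicate is shown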
# eIF4H inh = human eIF4H binding inhibitors, primary screen, translation initiation inhibitor project, biochemical, uHTS, fluorescence polarization; Eukaryotic translation initiation factor 4H (Homo sapiens), Q15056; 0.94% of 290,000 active; eIF4H fluorescence polarization binding assay; inhibition, % at 35 µM;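 active = 50% or more with normal probe brightness, or confirmed in later tests; inconclusive = above 50% with abnormal brightness, or retests that disagree; inactive = below 50% or failed in later tests; about a fifth of its hits are not listed in these tables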;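 note: calls also rest on retests at 20 µM and on dose response follow-up; 0% = protein and probe with vehicle and 100% = probe without protein; strong numbers were not always called active; many hits fall short of the cut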
# PABP FP inh = PABP poly(A) RNA binding inhibitors, primary screen, biochemical, fluorescence polarization, uHTS | inhibition, % at 35 µM | 1% of 290,000 active | Polyadenylate-binding protein 1 (Homo sapiens), P11940 | AID 2014, 2009;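 active = 50% or more with normal probe brightness, or confirmed in later tests; inconclusive = above 50% with abnormal brightness, or retests that disagree; inactive = below 50% or failed in later tests; about a fifth of its hits are not listed in these tables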;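 note: calls also rest on retests at 20 µM and on dose response follow-up; controls were probe without protein and protein plus probe with vehicle; some compounds called inactive have numbers as strong as hits; many hits fall short of the cut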
# eIF4H inh retest = recorded beside eIF4H inh, whose call it bears; inhibition, %; compound at 20 µM; confirmation average;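 mean of two retest wells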
# PABP FP inh retest = also measured in PABP FP inh; calls as there; inhibition, %; compound at 20 µM; confirmation repeats;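 mean of two retest wells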
# MT1-MMP act inh RFP = second read-out of MT1-MMP act inh, no call of its own (marks repeat the call); RFP signal change, %; measured here: RFP expression control read;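 0 = vehicle wells; hits needed this value within 50% of zero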
# Starred values were filed as active, the others as inactive; i = inactive; u = inconclusive; x = not tested or not shown.
SMILES,MT1-MMP act inh,MT1-MMP act inh RFP,CSC inhib,Rce1 inhib,Yeast UUG start,Env fusion inh,eIF4H inh,PABP FP inh,others
Cc1onc(C(=O)N2CCOCC2)c1[N+](=O)[O-],0,2,-20,i,x,-10,2,5,
COC(=O)C[C@H]1c2cc(C(F)(F)F)ccc2S(=O)(=O)N1C(C)(C)C,-1,-3,-5,i,4,10,x,x,
O=c1cc(C(F)(F)F)nc(SCc2cccnc2)[nH]1,0,2,3,i,1,x,-2,-6,
O=C(COC(=O)c1cccc(S(=O)(=O)Nc2ccc(F)cc2)c1)NCCN1C(=O)CSC1=O,-3,-1,-1,i,-8,3,x,x,
Cc1ccccc1NC(=S)N1CCCC(c2nc3ccccc3[nH]2)C1 (configuration not stated),0,1,-9,i,-25,10,-5,-13,
COC(=O)c1ccc(C(=O)N(C)C2CCCN(Cc3ccccc3F)C2)cc1 (configuration not stated),-4,-3,-7,i,-9,22,-2,8,
O=C(O)/C=C/C(=O)NNc1ccc([N+](=O)[O-])cc1,-2,1,11,i,x,32,-1,-2,
CC(=O)Nc1cccc(OC(=O)COc2ccc(Br)cc2)c1,4,5,-3,i,x,0,4,1,
CCOC(=O)CN1C(=O)NC2NC(=O)NC21 (configuration not stated),-2,5,-6,i,x,x,-9,1,
CCN(CC)S(=O)(=O)c1ccc(O)c(NC(=O)c2cc(-c3cc(OC)c(OC)c(OC)c3)nc3ccccc23)c1,2,-19,2,i,-6,x,16,-8,
O=C(CSc1nnc(-c2ccccc2)o1)N1CCN(c2ccccc2)CC1,3,3,7,i,-26,13,1,15,
O=C(Nc1ccc(Cc2ccncc2)cc1)c1cc(F)c(F)cc1Cl,2,1,x,i,x,-1,-3,1,
CCOC(=O)N1C2C=C(C)[C@@H]2[C@@H]2CC(=O)N21 (some centres not stated),4,7,-6,i,-9,x,1,14,
O=C(Nc1ccc(Br)cc1)N1CCCCC1,7,5,3,i,x,-2,-4,-9,
Cc1ccc(S(=O)(=O)NCCSCc2ccccc2)cc1,1,-2,x,i,-8,x,-1,-4,
S=c1[nH]nc(-c2ccccn2)n1/N=C/c1ccc(Br)s1,2,3,-8,i,x,-28,7,-12,
O=C(O)c1ccccc1N(Cc1ccccc1)C(=O)COc1ccccc1,2,5,-6,i,-8,3,-3,-1,
CCNC(=O)c1ccccc1NC(=O)C1CC(=O)N(C(C)C)C1 (configuration not stated),-3,3,-2,i,2,5,-3,1,
CC(=O)N1CCc2c(sc(NC(=O)C3COc4ccccc4O3)c2C(N)=O)C1 (configuration not stated),-5,0,-6,i,12,-52,11,15,
Cc1ccccc1C(=O)Nc1ccc(-c2nc3ccc(C(=O)c4ccccc4)cc3[nH]2)cc1,-3,2,84*,i,1,x,4,4,
Cc1nc(NC(=O)c2ccc3c(c2)OCCO3)ccc1Br,4,-5,-3,i,-33,-122,-5,-1,
O=C(NCc1cccnc1)/C(=C/c1ccco1)NC(=O)c1ccccc1,-6,1,-2,x,-15,-14,-9,1,
CC(=O)Nc1ccc(S(=O)(=O)c2ccc(C)cc2)cc1,-1,1,7,i,x,24,3,-16,
CN(C(=O)c1ccc2c(c1)CCN2S(C)(=O)=O)c1ccccc1,2,2,-28,i,-10,-3,-12,11,
O=C(NCCc1ccccc1)c1cccc(NC(=O)C2CC2)c1,12,3,x,x,2,-42,x,x,
# (next part)
SMILES,MT1-MMP act inh,MT1-MMP act inh RFP,CSC inhib,Rce1 inhib,Yeast UUG start,Env fusion inh,eIF4H inh,PABP FP inh,others
Cc1ccc(S(=O)(=O)N2CCCC2C(=O)OCc2ccccc2)cc1 (configuration not stated),1,0,-11,i,x,-8,8,11,
COc1ccc(NS(=O)(=O)c2ccc(NC(=O)C3CCCO3)cc2)cc1 (configuration not stated),2,-6,-11,i,-26,u,-5,-1,
Cc1ccc(O)c(NC(=S)NC(=O)C(C)C)c1,7,3,4,i,-13,1,-8,-1,
CN(C1(C)CCS(=O)(=O)C1)S(=O)(=O)c1cccc([N+](=O)[O-])c1 (configuration not stated),0,0,-16,i,-17,x,x,x,
COC(=O)/C(=C/c1c[nH]c2ccccc12)NC(C)=O,2,5,-2,i,x,12,-10,-2,
CC(=O)c1ccc(N2CCN(S(=O)(=O)c3ccc4c5c3CC(=O)N5CC(C)S4)CC2)cc1 (configuration not stated),-12,-20,x,i,-26,x,-4,-6,
COc1ccccc1Oc1ccc(S(=O)(=O)N2CCOCC2)cc1S(=O)(=O)N1CCOCC1,-2,-3,-11,i,-10,x,4,-3,
CCCC1NC(=S)N(C2CCCCC2)C1=O (configuration not stated),3,6,6,i,x,9,5,5,
CCCNC(=O)c1nnsc1S(=O)c1ccc(Cl)cc1 (configuration not stated),-10,-16,x,i,x,3,-10,17,
O=C(O)c1cncc(Br)c1,-2,3,0,i,-11,7,-5,4,
C=CCN1C(=O)CSC1=Nc1cccc(O)c1,2,2,8,i,-4,-29,-3,8,
Cc1nc2ccccc2c(=O)n1/N=C/c1ccccc1Cl,-2,1,-3,i,-8,-56,-1,-1,
CCN(CC)S(=O)(=O)c1ccc(NC(=O)CO/N=C(\N)c2ccccc2)cc1,-3,0,-16,i,-21,x,x,x,
COc1cccc(C2=CC(c3cccc(OC)c3OC(F)F)n3nnnc3N2)c1 (configuration not stated),0,-6,0,i,-2,x,-7,6,
CCOc1ccc(NC(=O)C[n+]2ccccc2)cc1,0,4,-15,i,x,-42,-2,-7,
O=C(COC(=O)C1CCC1)Nc1cc(S(=O)(=O)N2CCOCC2)ccc1Cl,1,2,x,x,-5,-4,x,x,
O=C(Cn1cccc1C(=O)c1ccccc1)NCc1ccccc1Cl,2,-3,-14,i,-8,-20,x,x,
Cc1cc(C)c2[nH]c(O)c(N=Nc3ccc(C(=O)O)cc3)c2c1,1,3,-5,i,-11,-16,-1,-2,
Cc1cc([N+](=O)[O-])ccc1NC(=O)c1cncc(Br)c1,-4,1,-10,i,-16,x,-4,-6,
O=C(COC(=O)CCc1nc2ccccc2s1)NCc1ccco1,3,9,x,i,-15,9,-5,31,
CN(C)c1ncnc2c1ncn2[C@H]1CN(Cc2ccc(F)cc2)C[C@@H](CO)O1,3,7,x,x,-8,-9,x,x,
COc1ccc(/C=C/C(=O)NC(=S)NNC(=O)c2cccs2)cc1,2,-14,12,i,x,-111,5.9*,64,eIF4H inh retest=76*;PABP FP inh retest=33
C=CCn1cnc2c(nnn2-c2ccc(C)c(Cl)c2)c1=O,3,0,-3,i,x,1,-7,1,
C=C1CCN([C@H](C(=O)NCc2cc(OC)c(OC)c(OC)c2)C(C)C)S(=O)(=O)c2ccccc21,-1,-1,-14,i,3,-9,0,4,
CN(c1ccccc1)S(=O)(=O)c1ccc(Cl)c(C(=O)OCC(=O)NCc2ccco2)c1,2,-1,-18,i,3,-35,65,21,eIF4H inh retest=34;PABP FP inh retest=24

# 4 entries picked at random from those above, as already listed:
SMILES,MT1-MMP act inh,MT1-MMP act inh RFP,CSC inhib,Rce1 inhib,Yeast UUG start,Env fusion inh,eIF4H inh,PABP FP inh,others
Cc1cc([N+](=O)[O-])ccc1NC(=O)c1cncc(Br)c1,-4,1,-10,i,-16,x,-4,-6,
CC(=O)c1ccc(N2CCN(S(=O)(=O)c3ccc4c5c3CC(=O)N5CC(C)S4)CC2)cc1 (configuration not stated),-12,-20,x,i,-26,x,-4,-6,
COc1cccc(C2=CC(c3cccc(OC)c3OC(F)F)n3nnnc3N2)c1 (configuration not stated),0,-6,0,i,-2,x,-7,6,
C=CCn1cnc2c(nnn2-c2ccc(C)c(Cl)c2)c1=O,3,0,-3,i,x,1,-7,1,

# (cont.)
SMILES,MT1-MMP act inh,MT1-MMP act inh RFP,CSC inhib,Rce1 inhib,Yeast UUG start,Env fusion inh,eIF4H inh,PABP FP inh,others
C=CCc1ccc(OCCCCN2CCC(C)CC2)c(OC)c1,0,0,54,i,x,-19,-8,-11,
Cc1nc2sc(C(c3ccc(C(C)C)cc3)N3CCN(CCO)CC3)c(O)n2n1 (configuration not stated),0,6,-6,i,-16,-18,-3,-9,
C=CCOc1c(Cl)cc(CNc2ccc3[nH]c(=O)[nH]c3c2)cc1OC,-3,5,-1,i,x,6,3,14,
COc1ccc(OC)c(NC(=O)Cn2cnc3c(cnn3-c3ccccc3)c2=O)c1,-2,-2,-12,i,-2,3,1,-2,
CSc1nnc(-c2ccc(S(=O)(=O)N3CCOCC3)cc2)n1C,1,2,1,i,-14,-3,-14,-2,
O=C(COc1ccc(F)c(Cl)c1)N1CCCCCCC1,-6,-4,-7,i,-4,-3,-10,-7,
COc1ccccc1C(O)P(=O)(OC(C)C)c1ccc(N(C)C)cc1 (configuration not stated),-3,-5,x,i,-4,26,5,-1,
COc1ccccc1NC(=O)CNC(=O)Cn1c(C)cc2ccccc2c1=O,3,2,20,i,-2,-5,-1,-6,
COc1ccc(CNC(=S)N2CCN(Cc3ccccc3)CC2)cc1,1,-1,-16,i,-17,-6,11,10,
Nn1c(SCC(=O)NC2CCCCC2)nnc1C1CC1,-4,-2,-5,i,3,-3,-2,3,
O=C1SC(c2ccccc2)=C/C1=C\N1CCCCC1,-2,5,-5,i,-11,x,13,-5,
COc1ccc(NC(=O)Nc2cc(NC(=O)Nc3ccc(OC)cc3)c(C)nc2C)cc1,-1,1,16,i,x,17,4,4,
COc1ccc2c(c1)CCCN2C(N)=Nc1ccc(Cl)cc1,-2,0,17,i,-14,6,4,-3,
Cc1ccc(-n2nc(CN3CCOCC3)c(-c3ccccc3)c2N)c(C)c1,-4,1,4,i,x,1,-6,4,
O=C(CN1C(=O)NC2(CCCCCC2)C1=O)N1CCN(S(=O)(=O)c2ccc(Cl)cc2)CC1,1,-1,-16,i,0,-11,-3,0,
COC/C=C/C1=CC2=CC(=O)C(C)(OC(=O)c3cnc4ccccc4n3)C(=O)C2=CN1Cc1ccc(OC)cc1 (configuration not stated),2,6,3,i,-5,9,50*,29,eIF4H inh retest=56*;PABP FP inh retest=30
COc1ccc(OC)c(/C=N/NC(=O)Cc2nc3ccccc3[nH]2)c1,3,1,8,i,-15,3,5,-1,

# Three structures already listed, ordered by SMILES length, high to low.
SMILES,MT1-MMP act inh,MT1-MMP act inh RFP,CSC inhib,Rce1 inhib,Yeast UUG start,Env fusion inh,eIF4H inh,PABP FP inh,others
COC/C=C/C1=CC2=CC(=O)C(C)(OC(=O)c3cnc4ccccc4n3)C(=O)C2=CN1Cc1ccc(OC)cc1 (configuration not stated),2,6,3,i,-5,9,50*,29,eIF4H inh retest=56*;PABP FP inh retest=30
COc1ccccc1NC(=O)CNC(=O)Cn1c(C)cc2ccccc2c1=O,3,2,20,i,-2,-5,-1,-6,
C=CCc1ccc(OCCCCN2CCC(C)CC2)c(OC)c1,0,0,54,i,x,-19,-8,-11,

# Not all compounds are listed; the hit share may differ from the screen's.
